Vaccinia stage: Vaccinia orthopox stage-specific inhibition | actives 0.01% (n = 89,000) | Vaccinia-infected cells, mCherry/Venus stage reporter fluorescence; stronger effect = lower value; some inactives read as strong as hits | activity change (mCherry), % (concentration not given with the values);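 active means mCherry past -33% and 40 or more points under the early reporter, replicates agreeing; inconclusive means past -33% without that gap or agreement; tested in A549 cells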;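 further: scaled between vehicle wells and reference inhibitor wells; 23 nL library stock went into each well; one replicate is shown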
Vaccinia stage Venus: second read-out of Vaccinia stage, no call of its own (marks repeat the call); activity change (Venus), %; measured here: Venus reporter, other viral stage;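 negative = less Venus signal; first of two replicates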
The depositor's hits bear a star; ? = inconclusive; . = no result given; & = joins results of further samples. The list is partial. The share of hits here may be higher or lower than overall.

Fields: Vaccinia stage, Vaccinia stage Venus
C[C@@H]1CN([C@@H](C)CO)C(=O)c2cc(NC(=O)c3ccncc3)ccc2O[C@@H]1CN(C)C(=O)Nc1ccc2c(c1)OCO2
  45, 13
C[C@@H]1CN([C@@H](C)CO)S(=O)(=O)c2ccc(-c3ccc(C(=O)N(C)C)cc3)cc2O[C@@H]1CN(C)C(=O)C1CCCCC1
  2, 5
O=S(=O)(c1ccccc1F)N1CC[C@@H]2[C@@H](CO)Nc3ccc(C4=CCCCC4)cc3[C@@H]21
  26, 8
C[C@@H]1CN([C@@H](C)CO)C(=O)c2cccc(NS(=O)(=O)c3cn(C)cn3)c2O[C@H]1CN(C)C(=O)NC1CCCCC1
  3, 2
CN(C)C(=O)c1ccc(-c2ccccc2[C@H]2[C@H](C#N)N(C(=O)C3CCCC3)[C@H]2CO)cc1
  4, 5
C[C@H](CO)N1C[C@H](C)[C@@H](CN(C)C(=O)c2ccc3c(c2)OCO3)Oc2ncc(C3=CCCCC3)cc2C1=O
  ?, .
O=C(O)C[C@@H]1C=C[C@H](NC(=O)CCN2CCCCC2)[C@H](CO)O1
  -4, -7
Cc1noc(C)c1NC(=O)N(C)C[C@H]1OCCCC[C@H](C)Oc2ccc(NS(=O)(=O)c3ccc(Cl)cc3)cc2C(=O)N([C@H](C)CO)C[C@@H]1C
  25, 4
COCC(=O)Nc1ccc2c(c1)C(=O)N(C)C[C@H](OC)[C@@H](C)CN(Cc1ccccc1F)[C@H](C)CO2
  -19, -13
C[C@H]1CCCCO[C@@H](CN(C)C(=O)Nc2ccccc2)[C@@H](C)CN([C@@H](C)CO)C(=O)c2cc(NS(=O)(=O)c3cn(C)cn3)ccc2O1
  -9, 4
O=C(C[C@@H]1C=C[C@@H](NC(=O)c2ccccc2)[C@H](CO)O1)NCc1ccc(Oc2ccccc2)cc1
  -16, -15
C[C@H]1CN([C@@H](C)CO)C(=O)Cc2cc(NS(=O)(=O)c3cn(C)cn3)ccc2O[C@H]1CN(C)Cc1ccc(-c2ccccc2)cc1
  -3, -12
COc1ccc(NC(=O)Nc2ccc3c(c2)CC(=O)N([C@H](C)CO)C[C@H](C)[C@H](CN(C)Cc2ccc(Oc4ccccc4)cc2)O3)cc1
  ?, .
CNC[C@@H]1OCCCC[C@H](C)Oc2ccc(NC(=O)Nc3ccc4c(c3)OCO4)cc2C(=O)N([C@@H](C)CO)C[C@H]1C
  3, 10
O=C(C[C@H]1CC[C@H]2[C@@H](COC[C@H](O)CN2C(=O)c2cnccn2)O1)NCc1ccc(Cl)cc1
  7, 9
Cc1ccc(S(=O)(=O)N(C)C[C@H]2OCCCC[C@H](C)Oc3ccc(NS(=O)(=O)c4ccc(F)cc4)cc3C(=O)N([C@H](C)CO)C[C@@H]2C)cc1
  ?, .
O=C(Nc1ccc(Cl)c(Cl)c1)N[C@@H]1CC[C@H](CCNC(=O)c2ccc(F)cc2)O[C@H]1CO
  -6, 3
C[C@@H]1CN([C@@H](C)CO)C(=O)c2cc(NS(C)(=O)=O)ccc2O[C@@H](C)CCCCO[C@H]1CN(C)S(=O)(=O)c1ccc(Cl)cc1
  4, 2
Cc1noc(C)c1NC(=O)N(C)C[C@@H]1OCc2ccccc2-c2c(n(C)c3ccccc23)C(=O)N([C@H](C)CO)C[C@@H]1C
  22, 3
CC(C)NC(=O)N(C)C[C@@H]1Oc2ccc(NC(=O)NC3CCCCC3)cc2CC(=O)N([C@H](C)CO)C[C@@H]1C
  6, 2

A draw from above in order of molecular weight, ascending.
Fields: Vaccinia stage, Vaccinia stage Venus
O=C(C[C@@H]1C=C[C@@H](NC(=O)c2ccccc2)[C@H](CO)O1)NCc1ccc(Oc2ccccc2)cc1
  -16, -15
C[C@H](CO)N1C[C@H](C)[C@@H](CN(C)C(=O)c2ccc3c(c2)OCO3)Oc2ncc(C3=CCCCC3)cc2C1=O
  ?, .
C[C@@H]1CN([C@@H](C)CO)C(=O)c2cc(NS(C)(=O)=O)ccc2O[C@@H](C)CCCCO[C@H]1CN(C)S(=O)(=O)c1ccc(Cl)cc1
  4, 2
Cc1noc(C)c1NC(=O)N(C)C[C@H]1OCCCC[C@H](C)Oc2ccc(NS(=O)(=O)c3ccc(Cl)cc3)cc2C(=O)N([C@H](C)CO)C[C@@H]1C
  25, 4

Back to the main list with the 2 entries that preceded the break.
Fields: Vaccinia stage, Vaccinia stage Venus
Cc1noc(C)c1NC(=O)N(C)C[C@@H]1OCc2ccccc2-c2c(n(C)c3ccccc23)C(=O)N([C@H](C)CO)C[C@@H]1C
  22, 3
CC(C)NC(=O)N(C)C[C@@H]1Oc2ccc(NC(=O)NC3CCCCC3)cc2CC(=O)N([C@H](C)CO)C[C@@H]1C
  6, 2
C[C@H]1CN([C@@H](C)CO)C(=O)c2cc(C3=CCCC3)cnc2O[C@H]1CN(C)Cc1ccccn1
  20, 13
N#C[C@@H]1[C@H](c2ccc(C#Cc3ccc(F)cc3)cc2)[C@@H](CO)N1C(=O)C1CCC1
  -28, -11
Cc1noc(C)c1NC(=O)Nc1ccc2c(c1)C(=O)N([C@H](C)CO)C[C@@H](C)[C@H](CN(C)Cc1ccncc1)OCCCC[C@@H](C)O2
  12, 14
C[C@@H]1CN([C@@H](C)CO)C(=O)c2cc(Br)cnc2O[C@H]1CN(C)C(=O)C1CCCCC1
  16&-6, 10&5
C[C@H](CO)N1C[C@H](C)[C@H](CN(C)Cc2ccc(Cl)c(Cl)c2)Oc2ccc(NS(=O)(=O)c3ccc(Cl)cc3)cc2C1=O
  ?, .
Cc1ccc(S(=O)(=O)N(C)C[C@H]2Oc3ccc(NS(=O)(=O)c4c(C)noc4C)cc3CC(=O)N([C@@H](C)CO)C[C@H]2C)cc1
  -9, -21
CCS(=O)(=O)N1CC2(CN(Cc3cc(F)ccc3F)[C@@H](CO)c3c2c2ccc(OC)cc2n3C)C1
  -1, 2
COCC(=O)N1CCC2(CC1)CN(C(=O)Nc1ccccc1F)[C@@H](CO)c1c2c2ccc(OC)cc2n1C
  6, -5
O=C(C1CCCC1)N1CCCCN2[C@@H](CO)[C@@H](c3ccc(-c4cccc(F)c4)cc3)[C@@H]2C1
  ?, .
Cc1ccc(S(=O)(=O)N(C)C[C@H]2Oc3ccc(NC(=O)Cc4ccccc4)cc3C(=O)N([C@@H](C)CO)C[C@@H]2C)cc1
  -12, -10
O=C(C[C@H]1C[C@H]2c3cc(NC(=O)C4CCC4)ccc3O[C@H]2[C@H](CO)O1)NCc1ccc(Cl)cc1
  2, 6
COc1ccc(NC(=O)Nc2ccc3c(c2)C(=O)N([C@@H](C)CO)C[C@@H](C)[C@H](CN(C)C(=O)Nc2ccc(OC)cc2)OCCCC[C@@H](C)O3)cc1
  15, 3
C[C@H](CO)N1C[C@H](C)[C@@H](CN(C)Cc2ccc(C(=O)O)cc2)Oc2ccc(NC(=O)Nc3ccc4c(c3)OCO4)cc2C1=O
  7, 6
CCC(=O)NC[C@@H]1[C@@H](c2ccc(-c3cccc(F)c3)cc2)[C@@H](CO)N1CC1CC1
  -24, -14
C[C@@H]1CN([C@H](C)CO)C(=O)c2cc(C#C[C@@H](C)O)cnc2O[C@@H]1CN(C)C(=O)c1ccc(F)cc1
  16, 9
COc1ccc(C[C@@H]2CCc3cnnn3COC[C@H](CC(C)C)NC2=O)cc1
  -2, -3
C[C@@H]1CN([C@H](C)CO)C(=O)c2cc(-c3ccccc3F)cnc2O[C@@H]1CN(C)C(=O)C1CCC1
  -10, -12
CCCCNC(=O)C(OC(=O)c1ccccc1)c1ccco1 (stereo unspecified)
  5, 14
C/C=C/c1cnc2c(c1)C(=O)N([C@@H](C)CO)C[C@H](C)[C@@H](CN(C)C(=O)NCCC)O2
  15, -1
CC(=O)N1[C@@H]2c3ccc(C4=CCCCC4)c(=O)n3C[C@H]1[C@H](CO)[C@H]2C(=O)NCc1cc(F)cc(F)c1
  2, 1
CO[C@@H]1CN(C)C(=O)c2ccc(NC(=O)c3ccccc3)cc2OC[C@H](C)N(CC2CC2)C[C@@H]1C
  1, 7
C[C@@H]1CN([C@H](C)CO)C(=O)c2cc(NC(=O)Nc3ccc(F)cc3)ccc2O[C@@H](C)CCCCO[C@@H]1CN(C)C(=O)c1ccccc1
  23, 11
CCNC(=O)C[C@@H]1CC[C@H]2[C@@H](COc3ccc(NC(=O)C4CCCCC4)cc3C(=O)N2C)O1
  0, -3
O=C(NCC[C@@H]1CC[C@H](NC(=O)C2CCC2)[C@@H](CO)O1)Nc1ccc(Cl)cc1
  -9, -1
COc1cccc(S(=O)(=O)N2CC[C@@H]3[C@@H](CO)Nc4ccc(C#Cc5cccnc5)cc4[C@@H]32)c1
  -5, -9
OC[C@@H]1[C@H](c2ccc(C#Cc3ccccc3)cc2)[C@H]2CN(CC3CCOCC3)CCCCN12
  -29, -32
COc1cccc(C#Cc2ccc([C@H]3[C@H](CO)N4C(=O)CN(C(=O)c5ccccc5)C[C@@H]34)cc2)c1
  ?, .
C[C@H](CO)N1C[C@H](C)[C@@H](CN(C)C(=O)Cc2ccccn2)Oc2cc(C#Cc3ccccc3)ccc2S1(=O)=O
  -32, -23
COCC(=O)N(C)C[C@@H]1Oc2ncc(C3=CCCCC3)cc2C(=O)N([C@@H](C)CO)C[C@@H]1C
  0, 6
CNC(=O)C[C@@H]1CC[C@@H]2[C@@H](COc3ccc(NC(=O)Nc4ccccc4)cc3C(=O)N2C)O1
  -15, -1
O=C(C[C@@H]1C=C[C@@H](NC(=O)C2CCC2)[C@H](CO)O1)NCc1ccncc1
  12, 2
C[C@@H]1CCCCO[C@@H](CN(C)S(=O)(=O)c2ccccc2)[C@H](C)CN([C@@H](C)CO)C(=O)c2cc(NC(=O)Nc3ccc(F)cc3)ccc2O1
  9, 4
C[C@H](CO)N1C[C@H](C)[C@@H](CN(C)CC2CCOCC2)Oc2cc(-c3cccnc3)ccc2S1(=O)=O
  -3, -7
COc1ccc(NC(=O)N2C[C@@H]3[C@H](c4ccccc42)[C@@H](CO)N3C(=O)C2CCCC2)cc1
  -2, 3
C/C=C/c1ccc([C@H]2[C@@H](CO)N(C(=O)C3CCCC3)[C@H]2CNCC)cc1
  -16, -9
O=S(=O)(c1ccccc1)N1CCCCN2[C@@H](CO)[C@@H](c3ccc(-c4ccccc4F)cc3)[C@@H]2C1
  -8, -15
O=C(c1cnccn1)N1CC[C@@H]2[C@H](CO)Nc3ccc(-c4cccc(F)c4)cc3[C@@H]21
  -13, -10
CO[C@@H]1CN(C)C(=O)c2ccc(NC(=O)Nc3ccccc3F)cc2OC[C@H](C)N(C(C)=O)C[C@H]1C
  20, 13
CCC(=O)Nc1ccc2c(c1)OC[C@H](C)N(C(C)=O)C[C@H](C)[C@H](OC)CN(C)C2=O
  9, 1
CCCNC(=O)C[C@H]1C[C@@H]2c3cc(NS(=O)(=O)c4ccc(F)cc4)ccc3O[C@@H]2[C@@H](CO)O1
  19, 13
C[C@H]1CN([C@@H](C)CO)C(=O)c2cc(NC(=O)Cc3ccccc3)ccc2O[C@@H]1CN(C)Cc1ccc(Oc2ccccc2)cc1
  ?, .
COCC(=O)N1CC(=O)N2[C@@H](CO)[C@H](c3ccc(Br)cc3)[C@@H]2C1
  23, 9
CN1C(=O)c2cc(NC(=O)Nc3cccc(Cl)c3)ccc2OC[C@H]2O[C@H](CC(=O)NCCc3ccncc3)CC[C@H]21
  4, 5
C[C@@H]1CN([C@H](C)CO)S(=O)(=O)c2ccc(C#Cc3ccncc3)cc2O[C@@H]1CN(C)C
  -2, -8
COc1ccc(S(=O)(=O)Nc2ccc3c(c2)C(=O)N([C@@H](C)CO)C[C@H](C)[C@H](CN(C)C(=O)NC(C)C)OCCCC[C@H](C)O3)cc1
  4, 10
C[C@H](CO)N1C[C@H](C)[C@H](CN(C)Cc2ccccc2)Oc2ccc(NC(=O)Nc3cccc4ccccc34)cc2C1=O
  -9, -7
C[C@H]1CN([C@@H](C)CO)C(=O)Cc2cc(NC(=O)CCCCCC(=O)Nc3ccccc3N)ccc2O[C@H]1CN(C)C(=O)Nc1ccccc1
  12, 9
CCCNC(=O)N1C[C@H](O)COC[C@@H]2O[C@H](CC(=O)N3CCCCC3)CC[C@H]21
  9, 10
Cc1ccc(S(=O)(=O)N[C@@H]2CC[C@H](CCn3cc(C4CC4)nn3)O[C@@H]2CO)cc1
  -1, -5
C[C@@H]1CN([C@H](C)CO)S(=O)(=O)c2ccc(-c3cccnc3)cc2O[C@H]1CN(C)Cc1ccncc1
  -1, 0
CCS(=O)(=O)Nc1ccc2c(c1)C(=O)N(C)C[C@H](OC)[C@H](C)CN(C)[C@H](C)CO2
  16, 7
CO[C@@H]1CN(C)C(=O)c2cc(NC(=O)C3CC3)ccc2OC[C@H](C)N(Cc2ccncc2)C[C@@H]1C
  -3, 4
C[C@@H]1CCCCO[C@H](CN(C)S(=O)(=O)c2cccs2)[C@H](C)CN([C@@H](C)CO)C(=O)c2cc(NS(=O)(=O)c3cccs3)ccc2O1
  -9, -6
O=C(C[C@H]1C=C[C@H](NC(=O)CCN2CCCCC2)[C@@H](CO)O1)NCc1ccc(Cl)c(Cl)c1
  -7, 3
COc1ccc(CN(C)C[C@H]2Oc3ccc(NS(=O)(=O)c4ccc(C)cc4)cc3CC(=O)N([C@H](C)CO)C[C@H]2C)cc1
  -35, -23
CO[C@H]1CN(C)C(=O)c2ccc(NS(C)(=O)=O)cc2OC[C@@H](C)N(C(=O)NC(C)C)C[C@@H]1C
  -3, -1
CCN1CC(=O)N2[C@@H](CO)[C@@H](c3ccc(Br)cc3)[C@@H]2C1
  21, 15
CO[C@H]1CN(C)C(=O)c2ccc(NC(=O)c3ccccc3)cc2OC[C@@H](C)N(C(=O)CN(C)C)C[C@@H]1C
  -5, -1
CS(=O)(=O)N1CC2(C1)[C@H](c1ccccc1)[C@H](CO)N2C(=O)C1CCC1
  18, 19
CN1C(=O)c2cc(NC(=O)Nc3ccc(Cl)cc3)ccc2OC[C@@H]2O[C@@H](CC(=O)NCCN3CCCCC3)CC[C@@H]21
  -1, 6
